Bioassay records deposited in PubChem by Johns Hopkins Ion Channel Center.
KCNQ2 enhance: potentiators of rat KCNQ2 potassium channel. 310,000 tested, 0.54% active. B-score at 10 µM. Potassium voltage-gated channel subfamily KQT member 2 (Rattus norvegicus), O88943. AID 2239, 2010. CHO-K1 KCNQ2, FluxOR thallium flux fluorescence; active compounds read high;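 active means fluorescence ratio B-score at least 3 SD of library B-scores, with initial fluorescence B-score within 3 SD, cut at about 5.3 in these data; same plate scores as AID 2156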;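 further: B-score of peak minus minimum over baseline fluorescence ratio after K+ and Tl+ stimulus; positive B-score means potentiation of KCNQ2 with more thallium influx and brighter signal; only the inactives scoring about 0 or higher are listed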
Target sequence (O88943 whole entry, looked up): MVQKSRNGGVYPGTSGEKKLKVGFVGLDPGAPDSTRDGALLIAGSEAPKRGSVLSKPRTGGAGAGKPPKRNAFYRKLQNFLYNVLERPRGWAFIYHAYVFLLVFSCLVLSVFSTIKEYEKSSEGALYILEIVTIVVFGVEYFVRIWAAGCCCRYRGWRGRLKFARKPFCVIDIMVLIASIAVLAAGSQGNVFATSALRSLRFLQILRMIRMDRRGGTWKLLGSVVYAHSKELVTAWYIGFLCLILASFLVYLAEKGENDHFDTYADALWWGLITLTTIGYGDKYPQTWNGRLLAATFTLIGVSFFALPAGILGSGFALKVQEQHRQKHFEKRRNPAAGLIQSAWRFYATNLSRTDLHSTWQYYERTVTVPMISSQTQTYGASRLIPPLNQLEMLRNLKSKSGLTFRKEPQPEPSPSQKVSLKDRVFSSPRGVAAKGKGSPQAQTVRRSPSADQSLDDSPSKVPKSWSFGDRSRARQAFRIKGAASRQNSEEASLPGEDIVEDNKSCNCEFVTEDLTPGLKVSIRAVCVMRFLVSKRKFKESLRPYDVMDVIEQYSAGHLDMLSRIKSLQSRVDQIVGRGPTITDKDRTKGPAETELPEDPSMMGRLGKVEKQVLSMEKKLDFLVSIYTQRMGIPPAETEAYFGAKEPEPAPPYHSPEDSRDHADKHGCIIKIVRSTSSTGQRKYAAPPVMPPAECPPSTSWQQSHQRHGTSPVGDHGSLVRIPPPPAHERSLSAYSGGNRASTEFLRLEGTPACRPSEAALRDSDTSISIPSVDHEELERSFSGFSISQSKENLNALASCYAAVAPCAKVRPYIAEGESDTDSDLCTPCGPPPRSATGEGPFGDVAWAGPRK
KCNQ2 enhance baseline: also measured in KCNQ2 enhance; calls as there; B-score; compound at 10 µM; measured here: initial fluorescence intensity artifact check;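 brightness before thallium and not channel activity; 0 = typical well and far values either way flag optical interference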
The depositor's hits bear a star; / = not tested or not shown.

The opening 4 entries as a preview:
SMILES	KCNQ2 enhance	KCNQ2 enhance baseline
CCOc1ccc(CN2CCN(Cc3nc4c(s3)CCCC4)CC2CCO)cc1 (stereo not given)	1	-0.01
Cn1c(OCc2ccc3c(c2)OCO3)nc2c1c(=O)n(Cc1ccc(Cl)c(Cl)c1)c(=O)n2C	0.44	-0.62
COC(=O)CSc1nc(N2CCCCC2)c2c(c1C#N)CCCC2	1.7	-0.51
COc1ccccc1NS(=O)(=O)c1cccc(C(=O)N/N=C/c2ccccc2OCC(=O)O)c1	0.75	0.05

The listing, from the first entry:
SMILES	KCNQ2 enhance	KCNQ2 enhance baseline
CCOc1ccc(CN2CCN(Cc3nc4c(s3)CCCC4)CC2CCO)cc1 (stereo not given)	1	-0.01
Cn1c(OCc2ccc3c(c2)OCO3)nc2c1c(=O)n(Cc1ccc(Cl)c(Cl)c1)c(=O)n2C	0.44	-0.62
COC(=O)CSc1nc(N2CCCCC2)c2c(c1C#N)CCCC2	1.7	-0.51
COc1ccccc1NS(=O)(=O)c1cccc(C(=O)N/N=C/c2ccccc2OCC(=O)O)c1	0.75	0.05
Cc1cccc(NC(=S)N(CCc2nc3cc(C)c(C)cc3[nH]2)Cc2cccnc2)c1	0.17	-0.67
Cc1ccc(S(=O)(=O)N2CCN(C(=O)c3ccc4nc[nH]c4c3)CC2)cc1	0.09	-1.5
COc1ccc(N2C(=O)N3[C@H](c4ccc(Br)cc4)[C@@H]4C(=O)N(C(C)(C)C)C(=O)[C@@H]4[C@]3(Cc3ccccc3)C2=O)cc1	0.76	-1.3
CCOC(=O)Nc1ccc2c(c1)N(C(=O)CCN1CCN(CCO)CC1)c1ccccc1S2	0.27	0.56
COc1ccc(NC(=O)Nc2ccon2)c(OC)c1	0.02	0.97
COc1ccc(CCNC(=O)c2cc(=O)[nH]c3ccc(Br)cc23)cc1OC	0.7	0
CC1=NOC(=O)/C1=C\c1ccc(-c2ccccc2Br)o1	0.65	-1.2
COc1ccc(NC(=O)c2ccc(NC3=NC4CS(=O)(=O)CC4S3)cc2)cc1 (stereo not given)	1.5	0.04
CC(C)(C)C(=O)N1NC(=Nc2ccccc2)SC1(C)C	0.26	0.72
O=C(C/C=N\OCc1ccc(Cl)cc1Cl)Nc1ccccc1	0.31	0.06
CC1CC1C(=O)OCC(=O)Nc1cccc(S(=O)(=O)NC2=NCCCCC2)c1 (stereo not given)	1.3	0.12
COc1c[nH]n(-c2ccccc2)c(=O)c1=O	0.35	1.4
CCCCCCc1nc2c(=O)[nH]c3ccccc3c2o1	0.81	-1.5
CCOC(=O)N1CCN(C(=O)c2ccc3c(c2)NC(=O)/C(=C\c2ccc(OC)c(OC)c2)S3)CC1	1.6	-1.3
CCc1cc2c(C)ccc(C)c2nc1SCC(=O)Nc1c[nH]c(=O)[nH]c1=O	0.37	0.85
Cc1ccccc1N=C(NO)c1nonc1N	1.3	-0.75

Compound profiles (already shown). Order of values: KCNQ2 enhance | KCNQ2 enhance baseline
COc1ccccc1NS(=O)(=O)c1cccc(C(=O)N/N=C/c2ccccc2OCC(=O)O)c1 is listed with 0.75 | 0.05
Cn1c(OCc2ccc3c(c2)OCO3)nc2c1c(=O)n(Cc1ccc(Cl)c(Cl)c1)c(=O)n2C is listed with 0.44 | -0.62
CC1=NOC(=O)/C1=C\c1ccc(-c2ccccc2Br)o1 is listed with 0.65 | -1.2

More structures follow:
SMILES	KCNQ2 enhance	KCNQ2 enhance baseline
COC(=O)c1ccncc1C(=O)Nc1ccc(F)cc1	2.6	-0.93
COc1ccccc1N1CCN(C(=O)c2cc(-c3ccc4c(c3)OCO4)on2)CC1	0.08	-0.39
Nc1nc2nc(-c3ccc(Cl)cc3)cc(C(F)(F)F)n2n1	1.6	-0.98
CC(C)(C)C(=O)c1sc(Nc2ccccc2)nc1N	2.6	-2.3
Cc1ccc(-c2c(NC(=O)C(C)C)n(C)c3ccccc3c2=O)cc1	0.15	-0.06
O=C(Nc1nc2nccc(-c3ccccc3)n2n1)c1ccc(F)cc1	0.86	0.41
COc1ccc([N+](=O)[O-])cc1N(CC(=O)Nc1ccccc1C(=O)N1CCOCC1)S(C)(=O)=O	0.81	1.6
CCOC(=O)C(Cc1ccccc1)NS(=O)(=O)c1ccc(NC(C)=O)cc1 (stereo not given)	1.4	0.85
Cc1ccc(OCC(=O)O/N=C(\N)Cc2ccc(Cl)cc2)cc1	0.29	0.07
COc1ccc(OC)c(NC(=O)C2CCN(S(=O)(=O)c3c(C)noc3C)CC2)c1	0.17	1.1
COc1ccccc1C(=O)Nc1sc(C(=O)N2CCCC2)c(C)c1C#N	0.96	-1.5
COCCNC(=O)CSc1nc2cc(OC)c(OC)cc2c(=O)n1Cc1ccco1	1.2	-1.7
COc1ccc(NC(=O)C(C)Sc2nnc3c4c(nc(-c5ccc(OC)cc5)n23)CC(C)(C)OC4)cc1 (stereo not given)	0.88	-1.9
CC(C)c1onc(C(=O)N(C)Cc2ccccc2)c1[N+](=O)[O-]	1.2	-1.4
CCCn1c(SCC(=O)Nc2nc(-c3ccc(OC)cc3)cs2)nc2c1c(=O)n(C)c(=O)n2C	0.49	-0.49
S=C(NCc1ccccc1)NCc1ccc(CNC(=S)NCc2ccccc2)cc1	0.55	-1.5
COc1ccc(-c2nnc(NC(=O)c3ccc(S(=O)(=O)N4COCC4(C)C)cc3)o2)cc1	1.2	0.3
CCc1nnc(NS(=O)(=O)c2ccc(NC(=S)NC(=O)c3ccc(F)cc3)cc2)s1	0.03	-0.08
CC(=O)c1cc(C#N)c(SCC(=O)O)nc1C	0.94	2.2
CCN1CCc2c(sc(NC(=O)COc3ccccc3)c2C(=O)OC)C1	0.62	-0.68
CS(=O)(=O)N(CC(=O)NCCSCc1cccc(Cl)c1)c1ccc2c(c1)OCO2	0.6	-0.82
Cn1c(SCC(=O)NC(=O)NCc2ccco2)nnc1C(F)(F)F	0.46	2.8
CCC(=O)c1c[nH]c(C(=O)NCc2ccccc2OC)c1	0.95	-0.08
CC(C)=C(NC(=O)c1ccccc1)C(=O)NCCc1nc2ccccc2[nH]1	1.4	-1.4
O=C(C1CCCN1S(=O)(=O)c1ccc(Cl)c(Cl)c1)N1CCCCC1 (stereo not given)	0.25	-0.43
CC(Oc1ccccc1F)c1ccnc2nc(/N=C/N(C)C)nn12 (stereo not given)	0.15	-0.06
Cc1ccc2cc(CN(c3cccc(C)c3C)S(=O)(=O)c3ccccc3)c(=O)[nH]c2c1	0.45	-0.82
COc1cc(OC)cc(C(=O)N[C@H](C(=O)OCC(=O)NC(=O)NC(C)(C)C)C(C)C)c1	0.13	-0.06
N/C(=N\OC(=O)C12CC3CC(CC(C3)C1)C2)c1cccnc1	0.09	2.4
O=c1n(-c2ccccc2)c(=O)n2n1CC(O)C2	0.17	-0.04
COC(=O)CCC(=O)Nc1ccccc1C(N)=O	1.6	0.42
CCOC(=O)c1nn(-c2ccc(C)cc2)c2nc(Nc3ccccc3)cc(=O)n12	0.9	2.9
O=C(C1CC(=O)N(c2ccc3c(c2)OCCO3)C1)N1CCN(c2cccc(C(F)(F)F)c2)CC1 (stereo not given)	0.06	0.18
CNC(=O)c1c(NC(=O)CCS(=O)(=O)c2ccc(C)cc2)sc(C)c1C	0.64	-0.08
CC(C)C(=O)NNC(=O)CC(=O)Nc1ccccc1C(=O)O	0.75	1.7
CSc1nnc(-c2ccccc2)o1	1.7	2.8
O=C(NCc1cccnc1)c1ccc(-c2cccc(Cl)c2Cl)o1	1.6	-1.2
O/N=C(\c1ccc(Cl)cc1)c1ncc(C(F)(F)F)cc1Cl	0.46	-1.8
Cc1ccc(C)c(NC(=O)c2cnn(-c3ccccc3)c2C)c1	0.05	-2.3
c1ccc2c(c1)[nH]c1c(N3CCCC3)ncnc12	2.7	-0.46
COc1ccc(NC(=O)c2noc3c2CCCCC3)cc1	2.4	-2.1
CC(=O)OC1=C(C#N)Cn2ccc3cccc1c32	1.9	-1.1
CCOC(=O)N1CCN(C(=O)c2ccc(N(C)S(C)(=O)=O)cc2)CC1	0.03	0.08
CCc1nnc2n1N=C(c1ccc(-c3cc(Cl)ccc3Cl)o1)CS2	0.52	1.1
COc1ccccc1NC(=O)C1C2C=CC(C2)C1C(=O)NCc1cccnc1 (stereo not given)	0.82	-0.05
c1ccc2sc(Cc3nnc4n3CCCCC4)nc2c1	1.3	0.64
Oc1ccc(N=Nc2n[nH]c(-c3ccc(Cl)cc3)n2)cc1	0.75	-0.2
Nc1nc(NCCO)nc(NC2CCCCC2)c1[N+](=O)[O-]	1.5	0.31
O=C(O)c1ccc(/C=N/Nc2nnnn2-c2ccccc2)cc1	0.79	-0.49
CCOC(=O)c1cn2nc(Oc3ccc(C)cc3)ccc2n1	0.49	-0.09
C=CCn1c(SCC(=O)NC(=O)c2cccc([N+](=O)[O-])c2)nnc1-c1ccccc1F	0.78	0.38
CC(C)(CO)NS(=O)(=O)c1ccc2c(c1)C(=O)c1cc(S(=O)(=O)NC(C)(C)CO)ccc1-2	1	-1.7
O=C(CCN1CCCCCC1)Nc1ccc2c(c1)OCCO2	0.01	0.1
CN(C)CCCNC(=O)c1ccc(Cl)c(S(=O)(=O)N(C)c2ccccc2)c1	1	-0.05
CCc1nn2cc(C(=O)c3cc(Cl)ccc3O)cnc2c1-c1ccc(F)cc1	-5.6	/
COCCN1C(=O)N[C@@H](c2ccc(Br)cc2)C(C(=O)OC)=C1C	1.4	-0.98
CCCNS(=O)(=O)c1ccc(OCC(=O)NCc2ccc3c(c2)OCO3)cc1	0.12	1.2
COc1ccccc1N(CC(=O)N/N=C/c1c(O)ccc2ccccc12)S(C)(=O)=O	3.3	-0.8
Fc1cccc(Cl)c1CSc1ncn[nH]1	0.01	0.06
O=C(CN1CCCCCCC1)N/N=C/c1ccc(F)cc1F	0.02	-0.31

Later entries.
SMILES	KCNQ2 enhance	KCNQ2 enhance baseline
O=C(Nc1ccc(S(=O)(=O)N2CCCCC2)cc1)C1CCCN(C(=O)c2ccc(Cl)cc2)C1 (stereo not given)	1.1	1.2
CCC(C)(C(=O)Nc1c(C)cccc1C)N(C)C(=O)c1ccc2ccccc2n1 (stereo not given)	0.3	0.03
CCCCNc1nc2ccccc2[nH]1	1.5	-2.3
Cc1c(C)n(Cc2ccccc2)c2ccc(C(=O)NCCN3CCOCC3)cc12	0.84	-0.47
COc1ccccc1CN1CCNC(=O)C1CC(=O)NCC1CCOCC1 (stereo not given)	0.12	-0.11
N#CCc1ccc(OC(=O)c2cccnc2Cl)cc1	0.11	-0.52
COc1ccc(CNC(=O)C(C)OC(=O)CCN2C(=O)C3CC=CCC3C2=O)cc1 (stereo not given)	1.1	0.02
CCc1ccc(S(=O)(=O)/N=C2\C=C(Nc3ccc(C(=O)O)cc3)C(=O)c3ccccc32)cc1	3.1	-2.6
CC(C)(C)OC(=O)NCC1CCC(C(=O)NC[C@H](CC(=O)O)c2ccc(Cl)cc2)CC1 (stereo not given in full)	0.46	-0.06
CCN(CC)S(=O)(=O)c1ccc2nc(NC(=O)c3ccco3)sc2c1	2.1	0.43
CCN1N=C(c2ccccc2)CCC1=O	0.55	-1.6
Cc1ccccc1C(=O)NNC(=S)NC(=O)COc1ccccc1	2.9	-1.3
COc1ccc(CCCc2nnc(SCC(=O)N/N=C\c3ccc(O)c(OC)c3)o2)cc1C	0.07	0.81
Cc1cccc(Cn2cnc3c(nnn3Cc3ccc(Cl)cc3)c2=O)c1	0.31	-0.55
CCOC(=O)CCP(=O)(O)C(O)c1ccc(OC)cc1 (stereo not given)	0.17	-0.51
Nc1ccc(N=Nc2ccccc2Cl)c(N)n1	3.6	-0.02
Cc1noc(C)c1COC(=O)CCc1ccc(S(=O)(=O)N2CCCCC2)cc1	0.02	2.3
CC(C)(C)NC(=O)C(=O)NN=C1CCCCCCCCCCC1	1	-1.6
Cc1cc(=O)[nH]c(NN=C(CC(C)C)CC(C)C)n1	1.8	-0.81
COC(=O)N(C)c1ccccc1C(=O)N1CCOCC1	0.13	0.53
Cc1cc(N2CCC(C(=O)NCC3CC3)CC2)nc(-c2ccccc2)n1	0.78	1.4
O=C(NCCCN1CCOCC1)C(=O)N/N=C/c1ccccc1Cl	2.1	-2.1
CNC(=O)COC(=O)c1ccccc1NC(=O)c1ccco1	0.2	-1.3
O=C(N=C1SC2CS(=O)(=O)CC2N1c1ccc(Br)cc1F)C1CC1 (stereo not given)	2.2	0.85
CCCN1C(=O)/C(=c2\s/c(=C3\C=Cc4ccccc4N3CC)c(=O)n2-c2ccccc2)SC1=S	2.3	-1.1
Fc1ccc(C2CC(c3ccc(F)cc3)n3ncnc3N2)cc1 (stereo not given)	0.37	-0.85
Cc1cc(C)c2cc(CN(CCN(C)C)C(=O)Nc3ccccc3Cl)c(=O)[nH]c2c1	1.5	-0.11
O=[N+]([O-])c1cccc(-c2nnc(CNC3CC3)o2)c1	0.11	-1.1
CC(C)(C)N(Cc1cc2ccccc2[nH]c1=O)C(=O)c1cccc([N+](=O)[O-])c1	0.43	0.26
COCCn1c(-c2ccc(C)cc2)nc2oc3cc(OC)ccc3c(=O)c2c1=O	0.9	3.5
Cc1cccn2c(=O)c3cc(C(=O)NCCc4ccccc4)c(=N)n(CC4CCCO4)c3nc12 (stereo not given)	0.17	-0.88
O=S(=O)(c1cccs1)N1CCN(CCc2ccccc2)CC1	1	-0.44
C/C(=N\O)c1sc(-c2ccccc2)nc1C	0.9	0.98
Cc1cccc(CSCc2nnc(N)s2)c1	0.55	1.9
CCN(CC)S(=O)(=O)c1cc(C)c(C)cc1Br	1.1	0.41
COc1ccc(C(C)(C)NC(=O)C2CCC(=O)N(C3CCCC3)C2)cc1OC (stereo not given)	0.92	0.01
COC(=O)c1ccccc1NC(=O)CN(c1cc(OC)ccc1OC)S(C)(=O)=O	1.3	-1.3
COCCNC(=O)c1ccc2c(Cl)c3c(nc2c1)CCC3	0.05	-0.63

These rows are one share of the data; the hit share may differ from the screen's.
